Screens from PubChem.
Six1-Eya2 inh = inhibitors of human Six1/Eya2 interaction. AlphaScreen GST-Six1/His-Eya2 binding, biochemical; stronger effect = lower value; control for the full effect not named in the record. activity change, % (concentration not given with the values). actives 0.56% (n = 360,000). AID 651725; in the data active = activity change below about -65%; inconclusive = about -30% to -65%; inactive = above about -30%; note: % is set by controls: 0 for no effect and ±100 for the full control effect
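AlphaScreen with GST-Six1 and His-Eya2 (5X mix: 250 nM and 500 nM), glutathione donor and nickel acceptor beads; buffer 50 mM Tris pH 8.0, 300 mM NaCl, 1 mM TCEP; 1 h at 37 C in the dark.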
CtBP-E1A inh = CtBP/E1A binding inhibition; AlphaScreen GST-E1A/His-CtBP binding, 1536-well; stronger effect = lower value; control for the full effect not named in the record; activity change, % (test concentration not listed); actives 0.49% (n = 340,000); in the data active means activity change below about -65%; inconclusive means about -30% to -65%; inactive means above about -30%; note: % is set by controls: 0 for no effect and ±100 for the full control effect; compound concentration not given in the record
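Protein mix (5X: 125 nM each GST-E1A, His-CtBP) was incubated with pinned compound 2 h at 37 deg C in dark, in 50 mM Tris pH 8.0 buffer with 300 mM NaCl. Glutathione donor and nickel acceptor beads followed; AlphaScreen signal read after 1 h.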
TRPML1 inh = inhibitors of human TRPML1 channel. Q9GZU1. TRPML1-inducible cells, Ca2+ dye fluorescence, FDSS; stronger effect = lower value; inhibition of EC80 agonist-evoked calcium signal. activity change, negative = inhibition, % (concentration not given with the values). actives 0.02% (n = 390,000); in the data active means activity change below about -50%; inconclusive means about -30% to -50%; inactive means above about -30%;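 note: stimulus is agonist 54-4 at its EC80 concentration; % is set by controls: 0 for no effect and ±100 for the full control effect; compound concentration not given in the record; the text of the record puts the active cut at -80%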
Target sequence (Q9GZU1 whole entry, looked up): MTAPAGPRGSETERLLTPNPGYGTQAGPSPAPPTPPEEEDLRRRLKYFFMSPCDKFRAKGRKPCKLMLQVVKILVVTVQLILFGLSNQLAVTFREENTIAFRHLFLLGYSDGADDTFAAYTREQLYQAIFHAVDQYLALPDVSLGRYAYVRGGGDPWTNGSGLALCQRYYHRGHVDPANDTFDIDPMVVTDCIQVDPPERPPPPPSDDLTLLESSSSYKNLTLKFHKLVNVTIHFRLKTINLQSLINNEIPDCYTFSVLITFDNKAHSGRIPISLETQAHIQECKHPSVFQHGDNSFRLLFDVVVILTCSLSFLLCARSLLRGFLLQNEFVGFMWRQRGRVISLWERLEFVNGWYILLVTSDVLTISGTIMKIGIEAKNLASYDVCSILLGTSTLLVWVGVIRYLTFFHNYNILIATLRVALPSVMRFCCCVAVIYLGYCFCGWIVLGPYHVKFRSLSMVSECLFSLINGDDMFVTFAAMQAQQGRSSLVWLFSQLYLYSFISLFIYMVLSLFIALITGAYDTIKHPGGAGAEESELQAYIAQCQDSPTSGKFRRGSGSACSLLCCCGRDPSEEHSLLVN
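Tet-induced TRPML1-DL cells loaded with Ca8 no-wash calcium dye were read kinetically on FDSS. Compound addition was followed by EC80 agonist 54-4 (4 uM final); inhibition was read over 110 s.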
TRPML1 agonist = human mucolipin-1 channel agonism. TRPML1-expressing cells, Ca2+ dye fluorescence, FDSS; host cell line not named in the record; reference of the full effect not given here. Q9GZU1. actives 0.12% (n = 410,000). activation, % (concentration not given with the values); in the data active = activation above about 50%; inconclusive = about 30% to 50%; inactive = below about 30%; note: 0% is about no effect; the text of the record puts the active cut at 80%
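Cells: TRPML1-DL, 1X Tet inducer, ~16 h at 37 degrees C/5% CO2. Dye: ABD Ca8 no-wash + quencher, 45-90 min RT. Read: 10 s baseline, compound add, 110 s agonist phase; 54-4 EC80 (4uM final), 110 s antagonist phase.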
TRPV1 PAM = human TRPV1 potentiation; TRPV1-expressing cells, Fluo-8 calcium influx, capsaicin EC20 potentiation; host cell line not named in the record; control for the full effect not named in the record; Q8NER1; actives 0.02% (n = 320,000); AID 540277; potentiation, % at 8.33 µM; active means potentiation above 80%; inconclusive means 30% to 80%; inactive means below 30%; note: 0% is about no effect
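TRPV1-expressing cells were cultured overnight at 35.5C and loaded with Fluo-8 calcium dye for 40 to 90 min at room temperature. After a 10 s baseline, compound was added and calcium influx was read kinetically for 3 min (ex 480/em 520 nm).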
D2 PAM = positive allosteric modulators of human D2 dopamine receptor | potentiation, % (no concentration beside the values) | AID 624464 | P14416 | DiscoveRx D2 beta-arrestin cells, luminescence, 90 min; 100% = 57 uM dopamine signal | actives 0.23% (n = 360,000); active = potentiation of 50% or more; inconclusive = 30% to 50%; inactive = 30% or less;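 note: compound concentration not given in the record; tested on top of an EC20 dose of dopamine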
Target sequence (P14416 whole entry, looked up): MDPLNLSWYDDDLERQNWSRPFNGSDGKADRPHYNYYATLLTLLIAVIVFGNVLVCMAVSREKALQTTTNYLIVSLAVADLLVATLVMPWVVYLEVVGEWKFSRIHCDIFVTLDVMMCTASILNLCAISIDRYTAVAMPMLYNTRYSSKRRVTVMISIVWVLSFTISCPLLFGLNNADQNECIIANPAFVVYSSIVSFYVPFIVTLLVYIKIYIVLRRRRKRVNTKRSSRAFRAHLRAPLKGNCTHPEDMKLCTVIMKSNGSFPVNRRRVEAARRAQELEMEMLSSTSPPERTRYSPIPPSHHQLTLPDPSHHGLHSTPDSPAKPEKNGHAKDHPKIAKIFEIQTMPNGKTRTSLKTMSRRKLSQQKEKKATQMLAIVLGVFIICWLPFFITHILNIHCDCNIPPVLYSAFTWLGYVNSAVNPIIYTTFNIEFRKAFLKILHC
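PathHunter D2 cells, attached overnight at 37 deg C, received compound in DMSO plus dopamine at EC20 (50 nM final) for 90 min at 37 deg C. Beta-arrestin recruitment was read as luminescence after 1 h with detection reagent at ambient temperature.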
An asterisk follows results filed as active; ? = inconclusive; . = no result given.

SMILES | Six1-Eya2 inh | CtBP-E1A inh | TRPML1 inh | TRPML1 agonist | TRPV1 PAM | D2 PAM
COc1ccc(-c2csc(NC3OC(=O)c4ccccc43)n2)cc1 (centres undefined) | -2.3 | . | 2.3 | -1.0 | -7.4 | -21.4
CC1C(=O)Nc2ccccc2N1C(=O)c1ccc(Cl)cc1 (centres undefined) | 0.0 | -5.8 | 0.8 | 3.2 | 5.9 | -9.4
COc1ccc2c(c1)CCN=C2Cc1ccc(OC)c(OC)c1 | -10.8 | 0.0 | 0.8 | -0.7 | 8.6 | -13.6
Cc1c(NC(=O)CSCc2ccco2)c(=O)n(-c2ccccc2)n1C | 1.6 | -0.6 | -15.9 | -0.2 | 0.7 | -9.3
CC(=O)Nc1ccc(/C(C)=N/NC(=O)c2ccccc2Cl)cc1 | -2.6 | 5.1 | -4.3 | -0.3 | 9.8 | -14.2
CCCCN(CC(=O)NCCOC)C(=O)Cn1nnc2ccccc21 | 16.1 | 10.8 | 24.9 | -0.2 | -1.3 | -2.2
CS(=O)(=O)c1ccc2nc(NC(=O)CN3CCOCC3)sc2c1 | 1.0 | -9.0 | -5.3 | 0.3 | 6.0 | -0.8
CCCc1c(C)[nH]c2ccccc2c1=O | -2.0 | 0.7 | 14.7 | -1.0 | 6.9 | -14.8
COC(=O)C(C)Sc1snnc1-c1ccccc1 (centres undefined) | 13.9 | 10.9 | -7.2 | -0.6 | 8.7 | 6.0
CC12CCC(C(=O)NNC(=O)c3ccc(Br)cc3)(OC1=O)C2(C)C (centres undefined) | -7.5 | 2.8 | 3.0 | 0.0 | 27.5 | -24.9
CCN(CC)C(=O)COC(=O)C1CCN(S(=O)(=O)c2ccc3c(c2)OCCO3)CC1 | 5.8 | 2.4 | -2.7 | 0.8 | -1.7 | -0.2
N#C/C(=N\Nc1ccc(S(=O)(=O)N2CCOCC2)cc1)C(N)=S | -1.1 | -11.0 | 0.9 | -0.4 | -1.9 | -25.3
Brc1ccc(Oc2nnnn2-c2ccccc2)cc1 | 31.7 | -24.5 | 4.0 | 1.0 | -9.3 | -7.5
CCSC(=O)N1c2ccc(OC)cc2C=CC1C#N (centres undefined) | 2.9 | -0.3 | 24.6 | 2.5 | . | -10.0
COC(=O)c1ccc(COC(=O)CNC(=O)CNC(=O)c2ccc(C)cc2)cc1 | -0.1 | 4.3 | 4.2 | 3.7 | 9.2 | -9.8
COc1ccccc1N(C)S(=O)(=O)c1ccc(C)c(C(=O)N2CCCCCC2)c1 | 0.5 | 3.2 | -18.5 | -0.7 | -13.0 | 17.0
COc1cccc(NC(=O)/C=C/c2ccc(S(=O)(=O)N3CCOCC3)cc2)c1 | -20.2 | -12.9 | -3.2 | 3.9 | -40.0 | -3.7
O=[N+]([O-])c1cc(Cl)ccc1-c1nc(-c2ccncc2)no1 | 1.9 | -4.0 | 30.9 | 2.8 | -9.1 | 16.2
CC(=O)N(C)c1ccc(OCC(O)CN(c2ccccc2C)S(=O)(=O)c2ccc(C)cc2)cc1 (centres undefined) | -4.7 | -4.4 | 9.5 | -0.4 | -6.3 | -19.3
C=CCN1C(=O)/C(=C\c2cc(Br)c(OCc3ccccn3)c(OC)c2)SC1=S | -4.7 | . | 9.1 | 0.6 | 5.2 | -4.2
Cc1c(-n2c(SC(C)C(=O)NC(N)=O)nc3ccccc3c2=O)c(=O)n(-c2ccccc2)n1C (centres undefined) | 2.9 | -2.0 | 11.8 | 0.1 | 0.5 | 0.3
Cc1ccccc1-c1cc2nc(NCCN3CCCC3)n(C)c(=O)c2s1 | 3.6 | -10.1 | . | -0.3 | . | 9.7
Cc1oc2nc(SCC(=O)N3CCCCC3)nc(N)c2c1C | -10.2 | 11.1 | -10.6 | -0.4 | -0.7 | 3.6
COCCCNC(=O)Cn1cc2c(n1)CCCCC2 | 2.0 | 2.1 | 4.3 | 0.5 | -6.3 | -1.4
CC(O)c1cccc(NC(=O)CCC(=O)O)c1 (centres undefined) | -0.7 | 11.0 | 6.4 | 0.1 | -1.7 | 2.3
O=C(Nc1cnn(Cc2ccc(Cl)cc2)c1)c1ccc([N+](=O)[O-])cc1 | -10.5 | -0.6 | 18.1 | 0.0 | 19.1 | 21.4
O=C(O)CCc1nc(-c2ccccc2Cl)no1 | 10.2 | -1.8 | 2.6 | -0.1 | 16.7 | -15.5
Cc1nnc(SCc2cc(=O)[nH]c(N3CCCCC3)n2)s1 | 0.4 | 1.1 | 4.3 | -0.2 | . | -2.4
CCCc1cc2c(cc1NC(=O)c1ccccc1F)OCO2 | -21.2 | 0.0 | 4.9 | 0.8 | -4.7 | -2.2
CCOC(=O)N1CCC(NC2CCCCCCC2)CC1 | 2.0 | 8.5 | -3.9 | 0.0 | -2.1 | -8.0
CNC(=S)/N=C(/Nc1ccccc1)c1ccccc1 | -2.4 | -6.4 | -16.8 | -0.1 | 3.2 | -5.1
C#CCN(C[C@@H]1[C@@H](OC(=O)NC2CC2)[C@@H](OC(=O)NC2CC2)Cn2c(=O)ccc(=O)n21)S(=O)(=O)c1ccc(C)cc1 | 3.7 | 3.7 | -11.4 | -0.5 | . | -1.9
CCn1c2ccccc2c2cc(NC(=O)C(C)OC(=O)c3ccc(NC(=O)CC#N)cc3)ccc21 (centres undefined) | -5.7 | . | 14.0 | -1.0 | 6.2 | -3.0
Cc1ccc(N2C(=O)C3CCCN3C2=S)cc1C (centres undefined) | 0.7 | 8.2 | 4.1 | 1.3 | ? | -0.8
CSCC[C@H](NC(=O)OC(C)(C)C)C(=O)N1CCC(C(=O)N[C@@H](C)C(=O)NCc2ccc(F)cc2)CC1 | 1.0 | 7.1 | . | . | 6.6 | -10.0
Cc1ccc(C(=O)NCc2ccccn2)cc1NC1=NC2CS(=O)(=O)CC2S1 (centres undefined) | 3.3 | 8.9 | 2.2 | 0.2 | 16.3 | -4.1
CC(C)[C@H](NC(=O)OC(C)(C)C)c1nnc(SCC(=O)Nc2ccc(Br)cc2)o1 | -1.5 | -8.0 | 34.3 | 1.0 | -0.9 | 4.3
COc1cc(NC(=O)C2=CC(c3ccc(C)cc3)=NS(=O)(=O)N2C)cc(OC)c1OC | -10.0 | -2.6 | 33.2 | 2.0 | -12.4 | -0.3
CC1=C(C(=O)Nc2ccccc2)C(c2cccs2)C(C#N)=C(SCC#N)N1 (centres undefined) | -3.7 | -5.5 | 17.8 | 3.9 | -8.8 | -6.3
Cc1ccc(S(=O)(=O)NC(=O)C2(C)CCN2C(=O)C2(c3ccc(Cl)cc3)CC2)nc1 (centres undefined) | 4.5 | 2.9 | . | -0.4 | . | 3.6
CC(C)CCOc1ncnc2c1sc1nc3c(cc12)CSC(C)(C)C3 | 13.5 | -1.2 | 11.8 | 1.2 | -8.9 | 4.2
Cc1ccc(NC(=O)C(=O)NCC2CCCO2)cc1C (centres undefined) | 1.6 | -5.7 | . | . | -7.1 | -2.3
Cc1cc(-n2c(C)cc(C(=O)CN3C(=O)NC4(CCCCCC4)C3=O)c2C)no1 | -6.5 | 4.9 | 1.9 | -0.1 | -2.5 | -2.1
CC1(C)Oc2ccc3ccc(=O)oc3c2[C@@H](O)[C@H]1O | 0.2 | 4.0 | -7.1 | -0.4 | 1.0 | 2.1
CCc1nc2ccccc2c(C(=O)OCC(=O)N(CC(C)C)c2c(N)n(Cc3ccccc3)c(=O)[nH]c2=O)c1C | -7.6 | 11.0 | 4.8 | 8.8 | -4.3 | 17.5
COc1cc(NC(=O)C2CCC(CNc3c(N4CCCCC4)c(=O)c3=O)CC2)cc(OC)c1 (centres undefined) | -15.0 | -1.4 | -4.5 | -0.4 | 26.6 | -1.4
Cc1onc(-c2c(Cl)cccc2Cl)c1NC(=O)NC1CCSC1 (centres undefined) | -8.2 | 6.1 | -12.3 | 1.5 | -14.0 | 0.8
CCOC(=O)C1CCCN(S(=O)(=O)c2ccc(Br)s2)C1 (centres undefined) | 5.9 | 22.4 | -12.3 | -0.1 | -18.8 | -8.0
CC(C)C(=O)NCC(c1ccc2c(c1)OCO2)N1CCOCC1 (centres undefined) | 6.0 | . | -5.0 | 0.1 | 3.7 | -7.3
CCNc1nc(NCC)nc(OCCOC(=O)COc2ccc(Cl)cc2Cl)n1 | 12.8 | 16.9 | -11.6 | 2.0 | -5.1 | 1.2
Cc1cc(C(=O)COC(=O)c2ccc(O)cc2O)c(C)n1-c1ccc(OC(F)F)cc1 | -1.9 | -7.9 | 2.4 | -0.1 | 4.7 | ?
O=C1C2CC=CCC2C(=O)N1n1cnnc1 (centres undefined) | 5.1 | 3.1 | 12.2 | -0.1 | -16.1 | -3.8
COc1ccc(CN=C(Nc2ccccc2)SC2CC(=O)N(C)C2=O)cc1 (centres undefined) | -6.4 | 5.9 | -7.9 | -0.4 | -5.2 | 13.1
CCC/C=N/NC(=O)c1[nH]c2c([N+](=O)[O-])cccc2c1C | -4.3 | -0.5 | -7.7 | 0.4 | 10.5 | -8.0
COc1ccc(S(=O)(=O)NCCOc2ccccc2)cc1OC | 3.0 | 10.7 | -2.1 | -0.3 | 12.2 | -8.5
Nc1cc(=O)[nH]c(SCC(=O)Nc2cc(Cl)cc(Cl)c2)n1 | 0.0 | 2.4 | -14.9 | -0.3 | 10.1 | -37.4
Cc1ccccc1N1CC(C(=O)N2CCCCCC2)CC1=O (centres undefined) | -5.9 | 10.6 | 10.2 | 0.5 | -3.5 | -20.0
O=C1ON=C(c2ccc(Cl)cc2)/C1=C/c1ccc(O)cc1 | 0.5 | -0.2 | 12.1 | -0.7 | 4.4 | -7.0
Brc1ccccc1OCCCCN1CCCCC1 | -3.0 | 6.5 | 0.7 | -0.2 | 7.2 | -4.7
CC(C)CCNC(=O)NC(=O)COC(=O)C1CCN(S(=O)(=O)c2ccccc2F)CC1 | 0.0 | 5.1 | -13.8 | 2.2 | 4.8 | 4.1
CCc1noc(C)c1C(=O)Nc1nc(-c2cc(C)ccc2C)c(C)s1 | -2.6 | -4.0 | -18.1 | 0.5 | 10.3 | -2.6
